VACV Venus inh – vaccinia inhibition (Venus reporter); Vaccinia virus Venus reporter expression, fluorescence; Potency, µM (titrated, usually from 36.5 µM), for inactives: at the top dose activity change, negative = inhibition, hits mostly inhibitors; 0.46% of 330,000 active; AID 720580; active means well fitted inhibition curve with a large enough effect; inconclusive means small, poorly fitted or top-dose-only effect; inactive means no such curve, though single readings can be large or run the other way; tested in A549 cells; further: nearly all actives have a fitted effect of over 30% in size; inactives centre near -10
Vaccinia mCherry – inhibitors of vaccinia virus infection (mCherry reporter signal); 0.63% of 310,000 active; Vaccinia virus mCherry reporter infection, fluorescence; about a quarter of the inactives have no number; Potency, µM (top dose mostly 36.5 µM), for inactives: top-dose activity change, negative = inhibition, hits mostly inhibitors; active = well fitted inhibition curve with a large enough effect; inconclusive = small, poorly fitted or top-dose-only effect; inactive = no such curve, though single readings can be large or run the other way; tested in A549 cells; further: nearly all actives have a fitted effect of over 35% in size; inactives centre near -10
The depositor's hits bear a star; & = joins results of further samples; [ ] = dose if it differs, or a comment. On the % scale 0 is the no-effect control and ±100 the full control effect; potency means the concentration at half of the fitted maximal effect. Random draw from the library; overall some 0.87% were active at least once.

Screening CCc1nc2sc(C(=O)O)c(N)c2c2c1CCCC2 returned VACV Venus inh -17% and Vaccinia mCherry inactive.
For Fc1ccc(CCn2c(Cn3c(-c4cnccn4)nc4ccccc43)nc3ccccc32)cc1 the results were VACV Venus inh inconclusive and Vaccinia mCherry -10%.
CC(N)C12CC3CC(CC(C3)C1)C2 (stereo not given) was read as VACV Venus inh -13%&-12% and Vaccinia mCherry -2%.
Screening CCOC(=O)c1c(Nc2ccc(OC)cc2)nnc(-c2ccccc2)c1-c1ccccc1 returned VACV Venus inh -16% and Vaccinia mCherry -15%.
Screening O=C(CSc1n[nH]c(-c2ccccn2)n1)Nc1ccccc1 returned VACV Venus inh -24% and Vaccinia mCherry 7.9µM*.
O=C1c2ccccc2-c2ncnc3c(N4CCOCC4)cc(N4CCOCC4)c1c23 was read as VACV Venus inh -17% and Vaccinia mCherry -12%.
For CC1(C)O[C@H]2CC(=O)OC[C@]23[C@H]2CC[C@@]4(C)[C@H](c5ccoc5)OC(=O)[C@H]5O[C@]54[C@]2(C)[C@@H](O)C[C@@H]13 the results were VACV Venus inh -1% and Vaccinia mCherry -18%.
`COc1ccc(CN(C)C(=O)/C=C/[C@H]2O[C@@H](n3cnc4c(N)ncnc43)[C@H](O)[C@@H]2O)cc1OC` gave VACV Venus inh 10% and Vaccinia mCherry 24%.
For COc1ccc(C2=NOC(Cn3nc(C(=O)NCc4ccccc4OC)cc3-c3ccccc3)C2)cc1 (stereo not given) the results were VACV Venus inh -19% and Vaccinia mCherry inactive.
For O=C(Nc1ccc2c(c1)OCCO2)c1cccc(S(=O)(=O)N2CCCCC2)c1 the results were VACV Venus inh -13% and Vaccinia mCherry -26%.
Screening Cc1ccc2c(c1)N(C(=O)CCC(=O)NCc1cccs1)CCO2 returned VACV Venus inh -9% and Vaccinia mCherry -3%.
Screening Cc1ccc(N2C(=O)CS(=O)(=O)C23C(=O)N(Cc2ccccc2F)c2ccccc23)cc1Cl (stereo not given) returned VACV Venus inh 6% and Vaccinia mCherry 7%.
Screening CCn1c(SCC(=O)Nc2cc(C)on2)nc2c(c1=O)SC(C)C2 (stereo not given) returned VACV Venus inh -14% and Vaccinia mCherry -10%.
O=C1c2ccccc2[C@@H]2C[C@H]3O[C@H]3CCN12 was read as VACV Venus inh 8% and Vaccinia mCherry -14%.
For CCCCC[C@H](C)N1C[C@@H](COCc2ccccc2)Oc2cc(N3CCC[C@H]3COC)ccc2S1(=O)=O the results were VACV Venus inh 2% and Vaccinia mCherry 4%.
Cc1cc2ccccc2cn1 was read as VACV Venus inh -5% and Vaccinia mCherry -10%.
CCOC(=O)C1CCCN(C(=O)CN2C(=O)C(CC)Oc3ccc(C)cc32)C1 (stereo not given) was read as VACV Venus inh 4% and Vaccinia mCherry -15%.
`CCCCN(C)c1nnc(NC(=O)Nc2cccc(C(C)=O)c2)s1` gave VACV Venus inh inconclusive and Vaccinia mCherry inconclusive.
Screening COc1ccc(NS(=O)(=O)c2ccc(NC(=O)C(C)(C(F)(F)F)C(F)(F)F)cc2)nn1 returned VACV Venus inh -2% and Vaccinia mCherry -12%[1.46 µM].
O=C(CN1C(=O)NC2(CCCCCCC2)C1=O)N1CCOCC1 was read as VACV Venus inh 0% and Vaccinia mCherry -14%.

Arranged by formula weight (lowest first): three of the compounds above.
Cc1cc2ccccc2cn1 was read as VACV Venus inh -5% and Vaccinia mCherry -10%.
Screening Cc1ccc(N2C(=O)CS(=O)(=O)C23C(=O)N(Cc2ccccc2F)c2ccccc23)cc1Cl (stereo not given) returned VACV Venus inh 6% and Vaccinia mCherry 7%.
For COc1ccc(C2=NOC(Cn3nc(C(=O)NCc4ccccc4OC)cc3-c3ccccc3)C2)cc1 (stereo not given) the results were VACV Venus inh -19% and Vaccinia mCherry inactive.

Other results.
For COc1ccc(C(=O)NCCn2cc(SCC(=O)Nc3ccc4c(c3)OCCO4)c3ccccc32)cc1OC the results were VACV Venus inh -7% and Vaccinia mCherry -3%.
COc1cc(CN2CCN(C(=O)CC(C)C)CC2)cc(OC)c1OC was read as VACV Venus inh -15% and Vaccinia mCherry -2%.
For COc1cc(OC)cc(C(=O)Nc2ccc(S(=O)(=O)Nc3ccccn3)cc2)c1 the results were VACV Venus inh -13% and Vaccinia mCherry inactive.
For C/C(=N\NC(=O)c1nnn(-c2nonc2N)c1C)c1ccc(-c2ccccc2)cc1 the results were VACV Venus inh 20% and Vaccinia mCherry -4%.
CC(=O)Oc1ccc(Cn2c(C)c(C(=O)N(C)Cc3ccc(F)cc3)sc2=O)cc1 was read as VACV Venus inh -14% and Vaccinia mCherry inactive.
Screening COc1ccc(C(C(=O)NCC2CCCO2)N(Cc2ccco2)C(=O)c2snc(C(N)=O)c2N)cc1OC (stereo not given) returned VACV Venus inh -1% and Vaccinia mCherry -4%.
For O=C(Nc1nc2ccccc2[nH]1)c1ccccc1 the results were VACV Venus inh -7%.
CN(Cc1ccccc1)CC(O)COc1ccc(CNCc2ccc(Cl)s2)cc1 (stereo not given) was read as VACV Venus inh -17% and Vaccinia mCherry inconclusive.
Screening CCOC(=O)N1CCN(C(=O)CNC(=O)C23CC4CC(CC(C4)C2)C3)CC1 returned VACV Venus inh -16% and Vaccinia mCherry -14%.
For COc1cc(/C=N/NC(=O)c2c(C)nc3ccc(Cl)cn23)cc(OC)c1OC the results were VACV Venus inh -3% and Vaccinia mCherry -7%.
`CN(C)c1cc(C(=O)N(C)c2ccccc2)ncn1` gave VACV Venus inh -12% and Vaccinia mCherry -12%.
O=C(Nc1ccc(F)cc1)C1CCN(S(=O)(=O)c2ccc3[nH]c(=O)oc3c2)CC1 was read as VACV Venus inh 0%[7.34 µM] and Vaccinia mCherry inactive[7.34 µM].
Screening CCOC(=O)C1CCN(c2ccc([N+](=O)[O-])cc2S(=O)(=O)N2CCOCC2)CC1 returned VACV Venus inh -19% and Vaccinia mCherry inconclusive.
Screening O=C(CSc1nnc(-c2ccc(O)cc2)o1)Nc1ccccc1 returned VACV Venus inh 1% and Vaccinia mCherry inconclusive.
`CC(=O)N1c2ccc(S(=O)(=O)NCC3CCC(C(=O)Nc4cccc(C)c4)CC3)cc2CC1C` (stereo not given) gave VACV Venus inh -20% and Vaccinia mCherry -19%.
COc1ccccc1-c1cnc(C(O)c2ccc(Cl)c(Cl)c2)[nH]1 (stereo not given) was read as VACV Venus inh -13% and Vaccinia mCherry -8%.
Screening COc1cccc(-c2nn(-c3ccccc3)cc2CNC(C)Cn2cncn2)c1 (stereo not given) returned VACV Venus inh 1% and Vaccinia mCherry -7%.
For Cc1cc(NC(=O)NC2CC(=O)N(c3ccc4c(c3)OCCO4)C2)no1 (stereo not given) the results were VACV Venus inh 13% and Vaccinia mCherry inactive.
For C=CCn1c[n+](CC(=O)c2ccc(Br)s2)c2ccccc21 the results were VACV Venus inh -8% and Vaccinia mCherry inactive.
For CCOc1ccc(C(=O)NCCS(=O)(=O)N2CCN(c3cccc(Cl)c3)CC2)cc1 the results were VACV Venus inh -11% and Vaccinia mCherry -12%.
For CCOc1cc(CNC(=O)c2ccc(Cn3c(=O)c4cccn4c4cccnc43)cc2)ccc1OC the results were VACV Venus inh -17% and Vaccinia mCherry -13%.
Cc1ccc(C)c(NC(=O)c2cc(S(=O)(=O)N3CCOCC3)cn2C)c1 was read as VACV Venus inh -3% and Vaccinia mCherry 5%.
For CCn1nnnc1SCC(=O)Nc1ccc2c(c1)OCO2 the results were VACV Venus inh -5% and Vaccinia mCherry -12%.
For CSc1ccc(S(=O)(=O)N2CCC(C(=O)NCC3CCCO3)CC2)cc1 (stereo not given) the results were VACV Venus inh -4% and Vaccinia mCherry -5%.
`CCCCN(C(C)=O)c1ccc2c(c1)C1CC2CCN1Cc1ccccc1` (stereo not given) gave VACV Venus inh -15% and Vaccinia mCherry inactive.
Screening Cc1ccc(NC(=O)/C(=C/c2ccco2)c2ccccc2)c(C)c1 returned VACV Venus inh 10%.
Screening COc1ccccc1OCC(=O)Nc1ccc2c(c1)OCO2 returned VACV Venus inh -6% and Vaccinia mCherry -22%.
For CN1/C(=C\C(=O)c2cccnc2Cl)C(C)(C)c2ccccc21 the results were VACV Venus inh -12% and Vaccinia mCherry -5%.
Screening COc1ccc(C)cc1NS(=O)(=O)c1cnc(N)nc1 returned VACV Venus inh -3% and Vaccinia mCherry -13%.
`CCCN(C(=O)CCSc1ccc(F)cc1)c1c(N)n(Cc2ccccc2)c(=O)[nH]c1=O` gave VACV Venus inh -6% and Vaccinia mCherry -7%.
`CS(=O)(=O)c1ccc2nc(NC(=O)c3ccc(N4C(=O)CCC4=O)cc3)sc2c1` gave VACV Venus inh -12% and Vaccinia mCherry -27%.
`CCCC12CN3CC(CCC)(CN(C1)C3c1c[nH]c3ccccc13)C2=O` (stereo not given) gave VACV Venus inh -16% and Vaccinia mCherry -9%.
CCn1c(SCC(=O)N2CC(=O)Nc3ccccc32)nnc1-c1ccoc1C was read as VACV Venus inh -4% and Vaccinia mCherry -15%.
Screening CCOC(=O)C1CCCN(CCC(C)c2ccccc2)C1 (stereo not given) returned VACV Venus inh -5% and Vaccinia mCherry -5%.
CC(C)n1c(SCC(=O)Nc2nc3c(s2)CCCC3)nc2c1c(=O)n(C)c(=O)n2C was read as VACV Venus inh -2% and Vaccinia mCherry -4%.
Screening CCc1ccccc1NC(=O)CCCN1C(=O)COc2ccc(C)cc21 returned VACV Venus inh -14% and Vaccinia mCherry -10%.
`COc1ccccc1C(=O)NCC1CCN(c2ccc(S(=O)(=O)N3CCOCC3)cc2)CC1` gave VACV Venus inh -21% and Vaccinia mCherry -29%.
`COc1ccc2[nH]c3c(=S)nc[nH]c3c2c1` gave VACV Venus inh -13% and Vaccinia mCherry inconclusive.
CCOC(=O)C1(C)CCCCN1C(=O)c1ccc(N(C)C)cc1 (stereo not given) was read as VACV Venus inh -2% and Vaccinia mCherry inactive.
`CCn1nnnc1SCC(=O)N1CCCc2ccccc21` gave VACV Venus inh -10% and Vaccinia mCherry -14%.

Overlap with the part before: five compounds, then new ones.
Screening CCc1ccccc1NC(=O)CCCN1C(=O)COc2ccc(C)cc21 returned VACV Venus inh -14% and Vaccinia mCherry -10%.
`COc1ccccc1C(=O)NCC1CCN(c2ccc(S(=O)(=O)N3CCOCC3)cc2)CC1` gave VACV Venus inh -21% and Vaccinia mCherry -29%.
`COc1ccc2[nH]c3c(=S)nc[nH]c3c2c1` gave VACV Venus inh -13% and Vaccinia mCherry inconclusive.
CCOC(=O)C1(C)CCCCN1C(=O)c1ccc(N(C)C)cc1 (stereo not given) was read as VACV Venus inh -2% and Vaccinia mCherry inactive.
`CCn1nnnc1SCC(=O)N1CCCc2ccccc21` gave VACV Venus inh -10% and Vaccinia mCherry -14%.
Cc1nc2c(c(C)c1CCC(=O)Nc1ccc(F)cc1)c(=O)n(C)c(=O)n2C was read as VACV Venus inh 7% and Vaccinia mCherry 6%.
COc1cc(OC)cc(C(=O)N2CCN(c3ccccn3)CC2)c1 was read as VACV Venus inh 3% and Vaccinia mCherry -19%.
`CCN(CC)c1ccc(S(=O)(=O)N2CCOCC2)cc1NC(=O)C1CC1` gave VACV Venus inh 0% and Vaccinia mCherry inactive.
Screening COc1ccc(Br)cc1CNC(=O)CCc1nc(-c2ccc(C)cc2)no1 returned VACV Venus inh -15%.
O=C(NCc1ccccc1F)C1CCN(S(=O)(=O)c2ccccc2)CC1 was read as VACV Venus inh -14% and Vaccinia mCherry inactive.
`OC[C@@H]1CN(CCN2CCOCC2)C[C@H](n2cnc3c(N4CCCC4)ncnc32)O1` gave VACV Venus inh 13% and Vaccinia mCherry 9%.
For Cc1nnc2n(-c3ccccc3)c(=O)c3ccccc3n12 the results were VACV Venus inh 29% and Vaccinia mCherry 8%.
`CN(C)C(=O)N1CCC(C(=O)NCc2cccs2)CC1` gave VACV Venus inh -4% and Vaccinia mCherry -15%.
For CC(C)(C)C(=O)NC(NC(=S)Nc1ccc(S(N)(=O)=O)cc1)C(Cl)(Cl)Cl (stereo not given) the results were VACV Venus inh -21% and Vaccinia mCherry -5%.
`CCC(C)(C)C1CCc2[nH]nc(C(=O)NCC3CC3)c2C1` (stereo not given) gave VACV Venus inh inconclusive and Vaccinia mCherry -6%.
Cc1cc([N+](=O)[O-])nn1Cc1ccc(F)cc1 was read as VACV Venus inh -17% and Vaccinia mCherry -4%.
Screening C[C@H](NC(=O)c1ccccc1Cl)C(=O)NCCc1ccc(S(N)(=O)=O)cc1 returned VACV Venus inh 6% and Vaccinia mCherry 5%.
For O=C(C1=C(O)C(=O)N(CCc2ccccc2)C1c1ccncc1)c1cc2ccccc2o1 (stereo not given) the results were VACV Venus inh -4% and Vaccinia mCherry inactive.
Cc1c(NC(=O)c2ccccc2)c(=O)n(-c2ccccc2)n1C was read as VACV Venus inh 7%.
S=c1[nH]nc(Cc2cccs2)n1-c1cccc2ccccc12 was read as VACV Venus inh -8% and Vaccinia mCherry -4%.
For Cc1c(C(=O)NCc2cccc(Cl)c2)sc(=O)n1Cc1ccc(C(=O)N(C)C)cc1 the results were VACV Venus inh -5% and Vaccinia mCherry 26%.
`O=C(Cc1ccc2c(c1)CCCC2)Nc1ccc2ccccc2c1` gave VACV Venus inh -6% and Vaccinia mCherry -5%.
For Cn1cnnc1Sc1ccc(C(=O)NCCC(c2ccccc2)c2ccccc2)cc1[N+](=O)[O-] the results were VACV Venus inh -14% and Vaccinia mCherry -20%.
`Nc1nc2nccc(-c3cccnc3)n2n1` gave VACV Venus inh -12% and Vaccinia mCherry -8%.
`Cc1cc(C)nc(SCc2ccc(C(=O)N/N=C3\CCCC(=O)C3)cc2)n1` gave VACV Venus inh -16% and Vaccinia mCherry inactive.
C1=CC(Cc2cncs2)c2ccccc21 (stereo not given) was read as VACV Venus inh -4% and Vaccinia mCherry inactive.

Bioassay records (PubChem)
